CtBP-E1A inh = inhibitors of CtBP/E1A interaction; AlphaScreen GST-E1A/His-CtBP binding, 1536-well; stronger effect = lower value; control for the full effect not named in the record; activity change, % (test concentration not listed); 0.49% of 340,000 active; in the data active means activity change below about -65%; inconclusive means about -30% to -65%; inactive means above about -30%; note: % is set by controls: 0 for no effect and ±100 for the full control effect; compound concentration not given in the record
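AlphaScreen with 125 nM GST-E1A and 125 nM His-CtBP (5X stocks) in Tris pH 8.0, 300 mM NaCl, BSA, Tween 20, TCEP. Compounds preincubated 2 h at 37 deg C, then glutathione donor/nickel acceptor beads added for 1 h at 37 deg C in dark.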
PINK1 expr mod = PINK1 expression modulation | PINK1 immunofluorescence, high-content cytometry, 24 h | Potency, µM (doses to about 76.6 µM), for the others: at the highest dose activation (PINK1 increase), hits mostly activators | AID 624263 | 0.2% of 410,000 active; active = well fitted activation curve with a large enough effect; inconclusive = small, poorly fitted or top-dose-only effect; inactive = flat fitted curve, though single readings scatter; cell line not stated here;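 note: potency is the fitted concentration of half-maximal effect; % of control where 0% means no effect; nearly all actives have a fitted effect of over 65% in size; a mitochondrial uncoupler was the plate control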
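Cells are seeded, rested 12 hours, then given compound at five concentrations or DMSO for 24 hours. After fixation, blocking and antibody staining, PINK1 amount and mitochondrial localization are scored; CCCP serves as control.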
D2 agonist = human D2 receptor agonism in beta-arrestin assay; DiscoveRx PathHunter D2 beta-arrestin, luminescence, 90 min; 100% = 57 uM dopamine signal; activation, % (test concentration not listed); 0.084% of 360,000 active; AID 624465; in the data active = activation above about 40%; inconclusive = about 15% to 40%; inactive = below about 15%; note: compound concentration not given in the record; the text of the record calls up to 30% inactive
Target sequence (P14416 whole entry, looked up): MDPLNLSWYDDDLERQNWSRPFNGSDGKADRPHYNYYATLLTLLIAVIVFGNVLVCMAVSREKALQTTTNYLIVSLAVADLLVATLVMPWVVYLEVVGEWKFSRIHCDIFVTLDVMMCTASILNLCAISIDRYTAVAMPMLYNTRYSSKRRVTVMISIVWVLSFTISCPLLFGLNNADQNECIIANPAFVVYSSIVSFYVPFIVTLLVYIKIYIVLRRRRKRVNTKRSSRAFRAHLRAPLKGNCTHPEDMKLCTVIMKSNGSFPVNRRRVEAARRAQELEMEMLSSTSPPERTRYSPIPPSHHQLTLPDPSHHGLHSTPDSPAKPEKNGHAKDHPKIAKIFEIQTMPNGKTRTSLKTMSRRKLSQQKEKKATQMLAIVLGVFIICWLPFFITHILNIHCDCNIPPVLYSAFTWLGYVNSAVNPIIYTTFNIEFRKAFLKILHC
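Agonist mode: compounds alone added to overnight-plated D2 PathHunter cells for 90 min at 37 C, with 57 uM final dopamine (EC100) defining full response. Beta-arrestin recruitment detected by chemiluminescent reagent, read after 1 h at ambient temperature.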
TRPML1 ag = activates the human TRPML1 channel | TRPML1-expressing cells, Ca2+ dye fluorescence, FDSS; host cell line not named in the record; reference of the full effect not given here | activation, % (test concentration not listed) | Q9GZU1 | 0.12% of 410,000 active; in the data active = activation above about 50%; inconclusive = about 30% to 50%; inactive = below about 30%; note: 0% is about no effect; the text of the record puts the active cut at 80%
Target sequence (Q9GZU1 whole entry, looked up): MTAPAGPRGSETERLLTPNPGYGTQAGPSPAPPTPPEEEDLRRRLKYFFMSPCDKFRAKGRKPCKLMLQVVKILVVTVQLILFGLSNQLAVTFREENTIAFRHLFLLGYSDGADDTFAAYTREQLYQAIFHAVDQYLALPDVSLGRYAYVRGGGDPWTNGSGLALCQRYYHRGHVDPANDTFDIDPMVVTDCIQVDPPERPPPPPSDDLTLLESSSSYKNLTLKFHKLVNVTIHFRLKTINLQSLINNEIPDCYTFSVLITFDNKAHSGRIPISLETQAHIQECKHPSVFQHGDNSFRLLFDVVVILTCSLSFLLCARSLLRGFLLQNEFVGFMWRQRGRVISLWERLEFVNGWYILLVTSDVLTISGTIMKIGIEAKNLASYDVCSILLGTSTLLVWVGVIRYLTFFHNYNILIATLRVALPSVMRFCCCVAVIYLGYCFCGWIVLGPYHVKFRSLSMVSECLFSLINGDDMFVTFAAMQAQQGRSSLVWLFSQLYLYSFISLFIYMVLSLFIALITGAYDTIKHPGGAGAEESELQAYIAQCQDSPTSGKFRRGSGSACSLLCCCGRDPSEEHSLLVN
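Agonist activity was taken from a 110 s kinetic Ca2+ dye read on the FDSS after pinning compounds onto TRPML1-DL cells. The cells were seeded at 1,500/well with Tet inducer, incubated about 16 h, then dye-loaded at room temperature.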
D2 PAM = human D2 receptor positive allosteric modulation; P14416; DiscoveRx D2 beta-arrestin cells, luminescence, 90 min; 100% = 57 uM dopamine signal; potentiation, % (no concentration beside the values); 0.23% of 360,000 active; AID 624464; active = potentiation of 50% or more; inconclusive = 30% to 50%; inactive = 30% or less;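 note: compound concentration not given in the record; tested on top of an EC20 dose of dopamine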
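D2 cells co-treated with compound plus 50 nM dopamine (EC20) for 90 min at 37 deg C to detect potentiation. Beta-arrestin recruitment was read as enzyme-fragment luminescence after 1 h at ambient temperature. Full response was set by 57 uM dopamine.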
Six1-Eya2 blk = inhibitors of human Six1/Eya2 interaction; 0.56% of 360,000 active; activity change, % (concentration not given with the values); AlphaScreen GST-Six1/His-Eya2 binding, biochemical; stronger effect = lower value; control for the full effect not named in the record; Q15475+O00167; in the data active = activity change below about -65%; inconclusive = about -30% to -65%; inactive = above about -30%; note: % is set by controls: 0 for no effect and ±100 for the full control effect
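Homogeneous AlphaScreen proximity assay pairing GST-Six1 with His-tagged Eya2 (added as 5X mix: 250 nM and 500 nM) in 50 mM Tris pH 8.0, 300 mM NaCl, 1 mM TCEP. Glutathione donor and nickel acceptor beads; 1 h, 37 °C, dark.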
Starred values were filed as active, the others as inactive; ? = inconclusive; / = no result given; & = joins results of further samples; [ ] = another dose, or the depositor's remark.

SMILES	CtBP-E1A inh	PINK1 expr mod	D2 agonist	TRPML1 ag	D2 PAM	Six1-Eya2 blk
O=C(Cn1ncc(N2CCOCC2)c(Br)c1=O)c1ccc(Cl)cc1	-3	-1.5%	5.9	1.0	12	0
Cc1ccc(S(=O)(=O)N2CC3(O)CN(C(=O)OC(C)C)N(C(=O)OC(C)C)CC3(OC(=O)NC3CCCC3)C2)cc1 (configuration not stated)	5	2.0%	-6.4	-0.9	6	8
CCc1nnc(NC(=O)c2ccc(S(=O)(=O)N3CCCC(C)C3)cc2)o1 (configuration not stated)	-25	0.5%	-1.2	-0.1	3	-21
COC(=O)C1=C(N)Oc2cc(C)[nH]c(=O)c2C1c1ccncc1 (configuration not stated)	0	0.0%	-2.2	0.0	-7	-5
Cc1ccc(NC(=O)CSc2nc(N)c3cc4c(nc3n2)CCCC4)cc1	0	3.9%	-1.9	2.4	-7	-25
Cc1ccc2c(CSc3nnc(N)s3)cc(=O)oc2c1	-4	-2.8%	-4.6	-0.9	-19	3
CSc1nc2ccc(NC(=O)c3ccc(=O)n(C)n3)cc2s1	2	-1.5%	1.4	1.3	-9	3
c1ccc(CC2CCN(c3ncnc4sccc34)CC2)cc1	6	-0.7%	-5.7	0.4	-4	1
Cc1nnc(N/N=C/c2c(Cl)cccc2Cl)n1N	3	-1.1%	3.7	0.7	14	12
COCc1cccc(-c2csc(C(NC(C)=O)c3ccccc3)n2)c1 (configuration not stated)	29	4.1%	-5.5	-0.5	5	19
O=C(Cc1cccs1)N1CCN(c2cccc(Cl)c2)CC1	0	5.0%	2.0	1.8	-4	26
COC(=O)[C@]1(C)N[C@H](c2ccc(-c3ccc(F)cc3)cc2)[C@@H]2C(=O)N(C)C(=O)[C@@H]21	0	0.1%	-7.4	-0.5	-4	-2
CCn1c(COc2ccc(Cl)cc2)nnc1SC1CCc2ccccc2C1=O (configuration not stated)	-14	0.4%	-0.5	0.0	?	1
CCOC(=O)C1=C(c2ccccc2)N=c2s/c(=C\c3ccco3)c(=O)n2C1c1cccs1 (configuration not stated)	8	-2.6%[38.3 µM]	0.0	2.5	5	-19
CCOCc1[nH]c(=S)[nH]c(=O)c1Cc1ccc(OC(C)C)cc1	/	0.4%	-3.8	0.7	0	1
Cc1ccc(CNc2cnn(C34CC5CC(CC(C5)C3)C4)c(=O)c2Cl)cc1	-2	-0.8%	-1.4	0.9	5	11
Cc1ccccc1C(=O)N[C@H](C(=O)Nc1ccc(Cl)c(Cl)c1)C(C)C	-14	6.9%	-2.4	-0.6	-8	-3
COc1ccc(-c2c(C#N)c(N)nc3c2c(=O)n(C)c(=O)n3C)cc1	3	5.1%	-0.7	-0.3	2	8
COC(=O)NNC(=S)NCc1ccc(C)cc1	1	0.3%	-0.8	-0.3	-3	10
O=C(Cn1c(=O)sc2ccccc21)NCc1ccccn1	-3	-0.7%	-11	2.1	-6	6
CCOC(=O)N1CCN(C(=O)CSc2nnc(-c3cccs3)o2)CC1	3	-1.5%	-1.8	2.5	4	11
O=C(COC(=O)c1cnccn1)NCCc1ccc(Cl)cc1Cl	/	-0.6%	-5.1	0.1	-12	8
COC(=O)CN1C(=O)N/C(=C/c2cc3c(cc2OC)OCO3)C1=O	0	0.6%	-4.8	-0.7	15	6
COc1ccc(CN2CCC2(C)C(=O)NCCNC(C)=O)c2ccccc12 (configuration not stated)	4	1.5%	4.2	-0.7	-4	11
COc1ccc(C(=O)CNc2ccccc2CO)cc1	0	1.7%	-7.9	-0.4	-27	2

Fetched by compound from above:
SMILES	CtBP-E1A inh	PINK1 expr mod	D2 agonist	TRPML1 ag	D2 PAM	Six1-Eya2 blk
c1ccc(CC2CCN(c3ncnc4sccc34)CC2)cc1	6	-0.7%	-5.7	0.4	-4	1
O=C(Cc1cccs1)N1CCN(c2cccc(Cl)c2)CC1	0	5.0%	2.0	1.8	-4	26
CCn1c(COc2ccc(Cl)cc2)nnc1SC1CCc2ccccc2C1=O (configuration not stated)	-14	0.4%	-0.5	0.0	?	1
COC(=O)[C@]1(C)N[C@H](c2ccc(-c3ccc(F)cc3)cc2)[C@@H]2C(=O)N(C)C(=O)[C@@H]21	0	0.1%	-7.4	-0.5	-4	-2
CCOC(=O)N1CCN(C(=O)CSc2nnc(-c3cccs3)o2)CC1	3	-1.5%	-1.8	2.5	4	11

(more compounds)
SMILES	CtBP-E1A inh	PINK1 expr mod	D2 agonist	TRPML1 ag	D2 PAM	Six1-Eya2 blk
CN(Cc1ccccc1)C(=C(Cl)Cl)/C(=C1/NCCN1C)[N+](=O)[O-]	10	-0.4%	-1.0	0.3	-7	6
Cc1cc2nc(-c3cccc(Cl)c3)c(CC(C)(C)C)n2c(C)c1Br	4	?	-2.2	0.9	1	5
CC1(C)Cc2c(C#N)c(NCCN3CCOCC3)nc(-c3ccco3)c2CO1	4	1.2%	-0.8	1.1	-1	7
O=C(c1ccc(CS(=O)c2ccc(F)cc2)o1)N1CCN(C2CCCCC2)CC1 (configuration not stated)	12	-0.2%	-1.2	-0.5	-14	3
Cc1ccc(N(C(=O)c2snc(C(N)=O)c2N)C(CC(C)C)C(=O)NC2CCCC2)cc1 (configuration not stated)	2	5.6%	-0.1	-1.0	0	6
O=C1CCC(OCc2ccccc2)CCN1CC[C@@H](Sc1ccccc1)c1ccccc1 (some centres not stated)	-2	?	/	1.2	/	-1
Nc1nncn1C(=O)CCCOc1ccc(Cl)cc1Cl	8	2.7%[38.3 µM]	0.7	0.3	-14	-1
COc1cc(NC(=O)[C@H]2O[C@@H](n3cnc4c(N)ncnc43)[C@H](O)[C@@H]2O)cc(OC)c1OC	0	0.7%	-2.8	1.0	-6	9
COCc1c(C(=O)OCC(=O)N(C)C2CCS(=O)(=O)C2)oc2ccccc12 (configuration not stated)	/	2.7%	8.0	-0.4	-15	-12
COc1cccc(C(=O)NNC(=O)C2CCCO2)c1 (configuration not stated)	2	-2.1%	1.5	-1.0	0	14
O=C(Nc1nnc(C2CC2)s1)c1cc(Cl)sc1Cl	-1	0.9%	2.1	0.3	-16	0
COc1ccc(S(=O)(=O)N2CCN(C(=O)c3ccc(NC(C)=O)cc3)CC2)cc1	9	2.1%	1.5	3.5	0	5
Cc1ccc(C(=O)OC2OC(=O)C(Cl)=C2N2CCOCC2)cc1 (configuration not stated)	-4	-3.2%	0.2	-0.9	1	10
CCCN1C(=O)/C(=C\C=C2/Sc3ccccc3N2CCO)SC1=S	-10	19%	1.0	7.1	5	6
CCCc1cc(C(=O)OC)c(NC(=O)c2cc(C)on2)s1	21	1.2%	-3.8	1.3	2	23
Cc1noc(C)c1CN1C(=O)c2ccccc2C1=O	2	0.0%	2.5	-0.6	-4	0
COc1ccc(C)cc1NC(=O)CSc1nnc(-c2ccc(OC)c(OC)c2)n1N	-3	-0.5%	-1.8	-1.0	-4	0
CN(c1ccccc1)S(=O)(=O)c1cccc(C(=O)OCC(=O)Nc2ccc(C(N)=O)cc2)c1	-8	-2.7%	-6.4	-0.5	-6	-13
O=C(NCc1ccc(F)cc1)c1ccc(Br)o1	2	-0.8%	-1.6	0.7	-38	-1
CCOC(=O)c1cnc2c(c(C)nn2C)c1Oc1ccccc1F	8	0.6%	-0.3	2.2	-1	6
Cc1nn(C)c(Oc2ccc(Cl)cc2)c1C(=O)O	-2	1.3%	0.5	0.8	6	15
CCOC(=O)Cc1csc(SCC(=O)N2CCN(c3ccc(OC)cc3)CC2)n1	1	18%[38.3 µM]	0.1	-0.8	-8	-4
C/C=C/COC(=O)c1[nH]c2c(c1C)C(=O)CC(c1ccco1)C2 (configuration not stated)	19	5.8%	?	0.6	1	-12
CC(C)(C)C(=O)NC(=S)Nc1ccccc1C(N)=O	2	6.1%	-3.6	1.8	-21	3
CCN(C(=O)CCCC(=O)N(CC)c1ccccc1)c1ccccc1	-10	-1.1%	-3.7	-0.2	-12	5

(cont.)
SMILES	CtBP-E1A inh	PINK1 expr mod	D2 agonist	TRPML1 ag	D2 PAM	Six1-Eya2 blk
O=C(NCc1ccco1)C1CCCN(S(=O)(=O)c2ccc(Cl)cc2)C1 (configuration not stated)	-3	0.1%	2.1	0.8	-11	0
CC(=O)NC1C(=O)N(CCN2CCOCC2)c2ccc(Cl)cc21 (configuration not stated)	-8	-0.4%	-11	1.0	-18	-24
CCC(=Nc1ccccc1OC)C1=C(O)CC(c2ccccc2)CC1=O (configuration not stated)	1	9.6%	-1.1	-0.8	-3	8
Cc1ccc(OCCCN2CCOCC2)c([N+](=O)[O-])c1	23	2.5%	-2.8	-0.5	-37	6
Cc1cccc(OCC(=O)NCc2ccc(F)cc2)c1	-2	0.5%	0.2	0.7	-4	4
O=C(C(=O)N1CCCc2ccccc21)c1c[nH]c2ccccc12	3	/	0.3	1.0	-10	1
OC(c1ccccc1)(c1nc(-c2ccc3c(c2)OCO3)cs1)C(F)(F)F (configuration not stated)	0	11%	8.2	0.4	-1	1
O=C(Nc1nc(-c2ccccc2)cs1)c1ccc(N2CCOCC2)c([N+](=O)[O-])c1	-27	?	4.6	0.3	8	-28
O=C(c1cccc(S(=O)(=O)N2CCc3ccccc32)c1)N1CCN(c2ccccc2)CC1	-7	-4.3%	0.1	4.1	-68	-10
Cc1cccc(OCCCSc2nc3ccccc3[nH]2)c1	11	0.2%	-1.3	2.0	-15	5
O=C(NCCCN1CCOCC1)c1ccc2c(c1)N(Cc1cccc(Cl)c1)C(=O)c1ccccc1S2=O (configuration not stated)	5	0.7%	2.3	0.9	-14	-2
Cc1cc(Cl)nc(-c2ccccc2O)n1	-5	3.1%	-2.6	/	-9	-16
Cc1cccc(Nc2nc(NCCCN3CCOCC3)nc(N)c2[N+](=O)[O-])c1	5	1.1%	-3.9	-0.7	-29	-20
COc1cccc(OC)c1C(=O)Nn1c(-c2cccc(C)c2)nc2ccccc2c1=O	4	-0.7%	0.8	0.4	-7	7
Cc1ccc(C)c(C(=O)COC(=O)CCCC(=O)Nc2cc(C(F)(F)F)ccc2Cl)c1	34	0.3%&1.5%	-1.1	2.6&2.9	-18	21
Cc1ccc(C2OC34CCCCCC3C(C#N)(C(=N)O4)C2(C#N)C#N)cc1 (configuration not stated)	1	-1.3%	-2.8	0.1	-8	-16
COc1ccc(-c2nnc(SC(C)C(=O)Nc3nccs3)n2-c2ccccc2)cc1OC (configuration not stated)	-20	1.3%	0.2	0.3	14	-1
COc1ccc(C(=O)CSc2nnc(CNC(=O)c3ccccc3F)n2C)cc1OC	-17	1.9%	7.2	0.3	0	-4
CC(=O)c1ccc(OCC(=O)NCCC2=CCCCC2)cc1	-19	-4.1%	-0.8	1.5	-12	4
CCC(=O)N1CCCC1(C)C(=O)NCc1ccc(SC)cc1 (configuration not stated)	2	1.7%	-2.8	-0.5	-9	0
CCOC(=O)C1CCCN(C(=O)CC(C)c2ccccc2)C1 (configuration not stated)	2	-0.1%[38.3 µM]	-0.8	0.3	-3	2
COc1cccc(-n2c(=O)c3ccccc3n(CC(=O)NCC3CCCO3)c2=O)c1 (configuration not stated)	-2	0.7%	1.2	0.0	-2	0
